Compound activity (PubChem)
StopGo RLuc: FMDV 2A StopGo reporter, Renilla signal. HEK cells with a luciferase reporter of 2A StopGo recoding. Potency, µM (highest dose often 57.5 µM), inactives show top-dose signal change, negative = less light. 120,000 compounds, 0.32% hits. AID 1745857; active means well fitted falling curve with a large enough effect; inconclusive means small, poorly fitted or top-dose-only effect; inactive means no such curve, though single readings can be large or run the other way; further: nearly all actives have a fitted effect of over 55% in size; overnight with compound
StopGo FLuc: lowers the firefly signal of an FMDV 2A StopGo reporter; 120,000 compounds, 0.23% hits; HEK cells with a luciferase reporter of 2A StopGo recoding; Potency, µM (highest dose often 57.5 µM), for the others: top-dose signal change, negative = less light; active = well fitted falling curve with a large enough effect; inconclusive = small, poorly fitted or top-dose-only effect; inactive = no such curve, though single readings can be large or run the other way; further: nearly all actives have a fitted effect of over 60% in size; overnight with compound
* = called active by the depositor; ? = inconclusive; & = joins results of further samples; [ ] = dose if it differs, or a comment. On the % scale 0 is the no-effect control and ±100 the full control effect; potency means the concentration at half of the fitted maximal effect. An excerpt. The share of hits here may be higher or lower than overall.

Each structure is followed by: StopGo RLuc, StopGo FLuc
Cc1ccc(S(=O)(=O)NCC(=O)OCc2cc(=O)oc3c(C)c(C)ccc23)cc1C
    -11%, 8%
O=C(CSc1nnc(-c2ccncc2)n1-c1ccc(Br)cc1)Nc1ccc(F)cc1
    5%, 4%
COc1ccc(C)cc1NC(=O)Cc1ccc(NC(=O)N2CCCCc3ccccc32)cc1
    -10%, -13%
Cn1nc(-c2ccc(OCC(=O)Nc3cccc(C(F)(F)F)c3)cc2)c2ccccc2c1=O
    15%, -4%
CCOC(=O)c1cc(S(=O)(=O)N2CCN(c3cccc(C)c3C)CC2)[nH]n1
    -2%, -4%
CC(C)C[C@H](NC(=O)c1ccc2nc(-n3cccc3)sc2c1)C(=O)NCc1ccncc1
    6%, -1%
Cc1cc(C(=O)OCC(=O)Nc2ccccc2C(C)C)c2ccccc2n1
    0%, 3%
CCCCCCOc1ccc(C(=O)CCN(C)C)cc1
    -4%, 183%[activator]
Cc1ccccc1CNC(=O)c1nn(-c2ccccc2F)nc1CO
    -12%, -3%
CCC(=O)N1c2ccccc2CC1C(=O)NCc1ccc(CC)cc1 (configuration not stated)
    1%, -1%
Cc1oc(-c2ccc(C(=O)N(C)Cc3ccccc3)cc2)nc1CN1CCc2ccccc21
    -19%, 0%
Cc1ccccc1NC(=O)COc1ccc2oc3c(c2c1)CCCC3
    -9%, -8%
FC(F)(F)c1ccc(Cl)c(N/N=C/c2ccc(Cl)cc2)c1
    -4%, 13%
COc1ccc(Nc2oc(-c3ccc(Cl)cc3)nc2C#N)cc1
    9%, 175%[activator]
Cc1cnc(NC(=O)c2cc(F)ccc2F)s1
    15%, 144%[activator]
CSc1ccccc1NC(=O)CC1CC2CCC1C2 (configuration not stated)
    16%, 0%
CC(C)(C)NC(=O)COc1ncnc2ccc(Br)cc12
    -14%, -9%
CCOc1ccc(C(=O)Nc2c(C)nc(Nc3ccccc3)nc2Nc2ccccc2)cc1OCC
    -15%&-11%, -14%&-24%
COc1cc(NC(=O)Cn2cc(S(=O)(=O)N3CCC(C)CC3)c3ccccc3c2=O)cc(OC)c1OC
    4%, -11%
COc1ccc(CCC(=O)N(CC#N)C2CC2)cc1
    22%, 0%

Next section
Each structure is followed by: StopGo RLuc, StopGo FLuc
COc1ccc(-c2nc3cc(NC(=O)Cc4ccc(Cl)cc4)ccc3o2)cc1OC
    10%, -14%
COC(=O)c1c(C)[nH]c(C(=O)CSc2nncs2)c1C
    3%, 154%[activator]
Cc1cccc(CS(=O)(=O)Cc2ccc(C(=O)NCCc3ccccc3)o2)c1
    9%, 6%
Cc1ccc2nc(Cl)c3cc(C(=O)NCCCN4CCC(C)CC4)sc3c2c1
    0%, -17%
Cc1ccn2cc(-c3ccc(NC(=O)CCc4ccccc4)cc3)nc2n1
    17%, 143%[activator]
O=c1oc2ccc(Br)cc2cc1S(=O)(=O)N1CCc2ccccc2C1
    -2%, 5%
COC(=O)c1ccc(OCC2c3cc(OC)c(OC)cc3CCN2C(=O)C(C)C)cc1 (configuration not stated)
    -6%, 3%
Cc1cccn2c(=O)c3cc(C(=O)N4CCC(C)CC4)sc3nc12
    24%, 35%[activator]
CCOc1ccc(CCNC(=O)c2cc3c(=O)n(CC)c4ccccc4c3s2)cc1OCC
    -11%, -19%
COc1cccc(COC(=O)c2ccccc2C(=O)c2ccccc2)c1
    -7%[1.06 µM], 19%
COc1cccc(CNC(=O)Cc2n[nH]c(=O)c3ccccc23)c1
    -5%, 3%
COc1cccc(-c2cc(=O)n(-c3ccccc3OC)[nH]2)c1
    -13%, -16%
FC(F)(F)c1ccc(/C=N/Nc2ccc(Cl)cc2)cc1
    19%, 185%[activator]
CCc1ccc(-c2cc(C(=O)O)c3ccc(C)c(C)c3n2)cc1
    1%, 4%
O=C(CN1Cc2ccccc2C1=O)Nc1ccc(S(=O)(=O)N2CCCCCC2)cc1
    -2%, -14%
CCOC(=O)c1cnc(NCc2ccccc2OC)c2ccccc12
    -18%, 0%
Cc1ccc(C(=O)c2c(N)c(C(=O)Nc3cccc(C(F)(F)F)c3)c3ccccn23)cc1
    3%, 7%
CC(C)C(NC(=O)c1ccccc1Cl)c1nc(-c2cccnc2)no1 (configuration not stated)
    1%, 3%
O=C(COc1ccc(F)c(Cl)c1)N1CCC(c2nc3ccccc3o2)CC1
    7%, 17%
CCOc1ccc2c(C)c(-c3ccccc3)c(=O)oc2c1
    ?, 9%

Further compounds:
Each structure is followed by: StopGo RLuc, StopGo FLuc
O=c1c2ccccc2n(Cc2cccc(Cl)c2)c(=O)n1Cc1ccccc1
    14%, 9%
COCCn1c(SCC(=O)Nc2ncc(Cl)cc2Cl)nc2ccccc21
    -1%, 19%
COc1ccc(N(C(=O)c2ccccc2C)S(=O)(=O)c2ccc(Cl)cc2)cc1
    150%[activator], -15%
CCOc1ccccc1CNS(=O)(=O)c1cnc(N)nc1
    1%, -11%
CCCN(CCC)C(=O)C1CCN(c2cc(C)nc3c(-c4ccc(Cl)cc4)c(C)nn23)CC1
    -11%, ?
O=C(Cn1nc2c(cc1=O)CCCC2)NCc1ccccc1
    2%, 82%[activator]
COc1cc(C)c(NC(=O)c2c(C)noc2C(C)C)cc1OC
    -2%, -6%
CCOC(=O)c1[nH]c(C)c(/C(O)=C2\C(=O)C(=O)N(CCN(C)C)C2c2cccc(F)c2)c1C (configuration not stated)
    -11%, -1%
CCOc1ccccc1C(=O)N(Cc1ccco1)Cc1ccccc1F
    72%[activator], -17%
Cc1ccc(N2CCN(C(=O)c3cnn(-c4ccc(C)c(C)c4)c3C3CCNCC3)CC2)c(C)c1
    -11%, ?
CCc1ccc(NC(=O)N2CCC(N3CCN(Cc4ccc(C)cc4)C(=O)C3=O)CC2)cc1
    -3%, 19%
CN(Cc1ccccc1)C(=O)c1ccc2c(c1)CCCN2S(C)(=O)=O
    45%[activator], 9%
COc1ccc(NC(=O)c2cc(-c3ccco3)nc3ccccc23)cc1
    13%, 22%
CCOc1c(Cl)cc(C(=O)N(Cc2ccc(N(C)C)cc2)Cc2ccco2)cc1Cl
    35%[activator], 23%
CCn1c(C(=O)NCc2cc(Br)ccc2OC)cc2oc3ccccc3c21
    ?, -15%
CCCCCn1cnc2c1c(=O)[nH]c(=O)n2CCCC
    8%, 8%
C=CCn1c(SCc2nc3ccccc3o2)nnc1-c1ccccc1
    25%, 35%[activator]
CSC(C)C(=O)N(C)Cc1ccsc1 (configuration not stated)
    6%, 3%
COc1ccccc1CNS(=O)(=O)c1ccc(-c2cnc(C3CC3)o2)cc1
    7%, ?
O=C(CSc1cnc2ccccc2n1)OCc1ccccc1
    -6%, -3%

The results go on:
Compound	StopGo RLuc	StopGo FLuc
O=C(COc1ccc(F)cc1)Nc1ccc(S(=O)(=O)N(Cc2ccccc2)c2ccccc2)cc1	22%	-12%
Cc1ccc(C(=O)N(C)C2CCCCC2)cc1I	22%	161%[activator]
COc1ccc(NC(=O)CCc2nc(-c3ccc(C)n(C(C)C)c3=O)no2)c(OC)c1	-3%	0%
CCCNC(C(=O)O)C(C)C (configuration not stated)	9%	4%
O=C(NCCCCCCNC(=O)C1CC1)C1CC1	4%	6%
COCCCNC(=O)Nc1ccc2nc(N3CCOCC3)cc(C)c2c1	-3%	17%
COc1cc2c(cc1OC)-c1c(c(C(=O)NCCN3CCOCC3)nn1-c1cccc(Cl)c1)C2	30%	0%
CSc1ccc(NC(=O)c2ccc3c(c2)CCC3)cc1	1%	38%[activator]
COC(=O)CSc1nc2c(cnn2-c2ccc(F)cc2)c(=O)[nH]1	-6%	-13%
COc1cc(NC(=O)CCc2c(C)n(C)c3cc(-c4ccccc4C)nn3c2=O)cc(OC)c1OC	9%	5%
O=S(=O)(c1ccccc1)c1nc(-c2cccs2)oc1N1CCCCC1	-8%	3%
CCOc1ccc(-n2nc3ccc(NC(=O)c4ccc(-c5cccc(Cl)c5)o4)cc3n2)cc1	-14%	-23%
Cc1cc(SCC2CCCCO2)nc2ccccc12 (configuration not stated)	20%	95%[activator]
NC(=O)CCN1CCN(S(=O)(=O)c2ccc(F)c(Cl)c2)CC1	-15%	-6%
CCOc1ccc(C(=O)c2cn(CC(=O)Nc3cc(OC)ccc3OC)c3cc(OC)c(OC)cc3c2=O)cc1	-11%	-11%
CC(OC(=O)c1ccc2ccccc2n1)C(=O)NC1(C#N)CCCCC1 (configuration not stated)	2%	9%
Cc1cc(Cl)ccc1NC(=O)CSc1ncnc2ccccc12	-14%	-5%
COc1ccc(/C=C/C(=O)Nc2ccc(C)cc2)cc1	-1%	189%[activator]
COc1ccc2cc(C(=O)N(C)CC(=O)Nc3c(C)cc(C)cc3C)c(C)nc2c1	-4%	3%
CCCc1ccc(C(=O)COC(=O)c2ccc3ccccc3c2)cc1	-3%	15%
COc1cccc(-n2cc(C(=O)NCCc3ccc(C)cc3)c3ccccc3c2=O)c1	-14%	-16%
Cn1c(=O)c2nc(SCc3ccccc3F)n(C)c2n(C)c1=O	0%	8%
CCCN1C(=O)C(NC(=O)CC)(C(F)(F)F)N=C1c1ccccc1 (configuration not stated)	-12%	-8%
CCc1ccccc1NC(=O)C(=O)NCC(c1cccnc1)N1CCN(c2ccccc2F)CC1 (configuration not stated)	-14%	-12%
CCc1cccc(NC(=O)C2CCN(S(=O)(=O)c3ccc(Br)s3)CC2)c1	-24%	-29%

4 entries from above, as labelled records.
NC(=O)CCN1CCN(S(=O)(=O)c2ccc(F)c(Cl)c2)CC1
  StopGo RLuc: -15% | StopGo FLuc: -6%
CCOc1ccc(C(=O)c2cn(CC(=O)Nc3cc(OC)ccc3OC)c3cc(OC)c(OC)cc3c2=O)cc1
  StopGo RLuc: -11% | StopGo FLuc: -11%
CC(OC(=O)c1ccc2ccccc2n1)C(=O)NC1(C#N)CCCCC1 (configuration not stated)
  StopGo RLuc: 2% | StopGo FLuc: 9%
Cc1cc(Cl)ccc1NC(=O)CSc1ncnc2ccccc12
  StopGo RLuc: -14% | StopGo FLuc: -5%

The list continues.
Compound	StopGo RLuc	StopGo FLuc
CCC(C)(C)NC(=O)/C=C/c1cccc(C#N)c1	-8%	20%
CC(=O)c1c(C)n(-c2cccc3ccccc23)c2ccc(O)cc12	-9%	-2%
COc1ccc(CNc2nc(NCc3ccc(OC)cc3)n(S(=O)(=O)c3ccccc3)n2)cc1	0%	3%
CCCN(Cc1nnc(-c2ccccc2Cl)o1)C(=O)c1ccc(C#N)cc1	5%	26%
Cc1ccc(Nc2n[nH]nc2C(=O)Nc2ccc(C)c(Cl)c2)cc1	-13%	123%[activator]
COc1ccc(-c2c3c(=O)n(C)c(=O)n(C)c3cn2-c2cccc(N)c2)cc1	-14%	-28%
COc1ccc(-c2nn(CC(=O)Nc3ccccc3F)c3c2cnc2ccc(F)cc23)cc1	-7%	31%[activator]
Cc1oc(-c2ccccc2)nc1CC(=O)Nc1cc(S(=O)(=O)N2CCCCC2)ccc1N(C)C	13%	-17%
COC(=O)c1cccc(NC(=O)C2CC(=O)Nc3cc(F)ccc32)c1 (configuration not stated)	-10%	-4%
CC(=O)c1ccc(N2CCN(C(=O)C3CCN(S(=O)(=O)c4cccc5nonc45)CC3)CC2)cc1	-1%	20%
CCCc1nc2ccccc2n2c(-c3cccc(C)c3)c3c(=O)n(C)c(=O)n(C)c3c12	-6%	-7%
CCc1cccc(NS(=O)(=O)c2cc(-c3cnc(C)o3)ccc2OC)c1	1%	-13%
CCC1CN(C(=O)Nc2cccc3c2CCCC3)c2cc(C)ccc2O1 (configuration not stated)	-9%	-16%
O=C(NNC(=S)NC(=O)c1ccccc1)c1ccncc1	-9%	23%
COCCn1c(COc2ccccc2-c2ccccc2)nnc1SC(F)F	42%[activator]	10%
Cc1c(C(=O)NCc2ccc(F)cc2)sc2nc(-c3ccc(F)cc3)cn12	-11%	-2%
Fc1ccc(NCc2ccccc2F)cc1	16%	21%
Cc1cccc(C(=O)NCC(c2cccs2)S(=O)(=O)c2cccs2)c1 (configuration not stated)	0%	0%
COc1ccc(N2CCN(c3ncnc4onc(-c5ccc(F)cc5)c34)CC2)cc1	-6%	-8%
CC(C)CCn1c(=O)c2cccnc2n(CC(=O)Nc2ccc(F)cc2)c1=O	13%	-11%
O=C(Nc1ccc(Cl)c(S(=O)(=O)N2CCCC2)c1)C1CC(=O)N(CCc2ccccc2)C1 (configuration not stated)	?	?
COc1ccc(S(=O)(=O)N2CCC(C)CC2)c2cccnc12	0%	-3%
Cc1cc(C)cc(C(=O)OCCN(C)C2CN(Cc3cn(Cc4ccccc4C(F)(F)F)nn3)S(=O)(=O)C2)c1 (configuration not stated)	-6%	-13%
Cc1nn(CC(O)c2cccc(F)c2)c(=O)c2ccccc12 (configuration not stated)	0%	129%[activator]
COc1cccc(NC(=O)c2c(-c3ccc(C)cc3)nnc3ccccc23)c1	-8%	124%[activator]

Following part.
Compound	StopGo RLuc	StopGo FLuc
Cc1oc(-c2ccccc2)nc1C(=O)Nc1ccccn1	-3%	34%[activator]
CCOc1ccccc1CNC(=O)c1[nH]c2ccccc2c1Sc1ccccc1	31%	-9%
O=c1n(Cc2ccccc2)nc2n1-c1ccccc1OC2	9%	169%[activator]
O=C(NCCN1CCOCC1)c1cc(-c2ccc(Cl)cc2)nc2ccccc12	-6%	-6%
CCCCCCCCNC(=O)C1CSCCS(=O)(=O)N1Cc1ccc(F)cc1 (configuration not stated)	9%	-3%
COc1cc(C2CC(=O)Nc3c2c(C)nn3-c2nncc(-c3ccccc3)n2)cc(OC)c1OC (configuration not stated)	0%	-5%
